WNV protease inh – inhibitors of WNV NS2B-NS3 protease, primary screen, biochemical, fluorogenic substrate; Genome polyprotein (West Nile virus), P06935; fluorogenic substrate Ex360/Em465; active compounds read low; z-score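 (tested at a level between 10 and 100 µM)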; actives 0.18% (n = 65,000); AID 577, 2007;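 active means z-score at -3 or under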;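 further: score is relative to mean and spread of the compound wells of a plate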
Target sequence (P06935 1371-1501 limits assumed): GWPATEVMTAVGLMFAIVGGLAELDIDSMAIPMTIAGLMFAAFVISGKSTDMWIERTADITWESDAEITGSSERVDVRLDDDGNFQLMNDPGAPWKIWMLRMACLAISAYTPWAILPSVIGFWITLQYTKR
Target sequence (P06935 1502-1679 limits assumed): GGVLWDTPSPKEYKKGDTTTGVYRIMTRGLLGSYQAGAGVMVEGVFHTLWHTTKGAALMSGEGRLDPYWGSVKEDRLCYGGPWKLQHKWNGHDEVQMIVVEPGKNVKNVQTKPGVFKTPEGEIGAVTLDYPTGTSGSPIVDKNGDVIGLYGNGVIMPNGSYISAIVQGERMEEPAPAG
Hsc70 ATP site – Hsc70 inhibitors, probe displacement, primary screen, biochemical, fluorescence polarization (AID 568) | Heat shock cognate 71 kDa protein (Homo sapiens) | displacement, % at 20 µM; hits with a dose series show IC50 in µM | 83,000 tested, under 10 active | Hsc70 fluorescence polarization, probe displacement; higher % means a stronger effect; strong numbers were not always called active;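 active means displacement above 50% without optical interference and an IC50 on retest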;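 further: ATPase domain with a fluorescein-tagged ATP probe; 0% = vehicle and 100% = excess ADP; read after one hour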
MT1-MMP promoter – inhibitors of MT1-MMP promoter transcription, cell-based, luciferase reporter, luminescence (AID 618) | MT1-MMP promoter luciferase reporter cells, luminescence | calls from a first round at 10 µM; hits with a dose series show EC50 in µM | actives 0.62% (n = 87,000);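 active means over half of the reporter light lost at 10 µM or EC50 under 50 µM; inactive means the rest and hits that failed the dose series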;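 further: actives suppress MT1-MMP promoter-driven transcription so potencies describe inhibitors; HT1080 fibrosarcoma cells; overnight exposure; toxic or luciferase-blocking compounds were not removed from the actives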
An asterisk follows results filed as active; i = inactive; x = no result given; + = active, no number. This is a random part of the collection; any-hit rate near 0.87%.

Every second line gives: WNV protease inh | Hsc70 ATP site | MT1-MMP promoter
C=CCOC(=O)C(C#N)c1nc2ccccc2nc1N1CCCC1 (centres undefined)
  2 | 52% | i
CCOC(=O)Cc1csc(NC(=O)CS(=O)(=O)Cc2ccccc2)n1
  1.5 | -1.3% | i
CC1(C(=O)Nc2nnc(C(C)(C)C)s2)Cc2ccccc2C(=O)O1 (centres undefined)
  x | -0.3% | i
CC1CC(C)(C)Nc2ccc(OC(=O)c3ccco3)cc21 (centres undefined)
  -0.8 | -1.9% | 3µM*
Clc1ccc(CSc2nncn2-c2ccccn2)cc1
  -0.94 | -0.6% | i
CCn1c(CC(=O)Nc2cccc(OC)c2)nnc1SCC(=O)N1CCN(c2ccccc2)CC1
  -0.19 | -0.7% | i
COC(=O)CCN(C(=O)c1ccc(OC(C)=O)cc1)c1ccccn1
  x | 0.8% | i
CCCC1c2ccc(C)n2CCN1C(=O)Nc1ccc(F)cc1 (centres undefined)
  0.27 | -22% | i
CCOc1ccc(S(=O)(=O)n2cc(-c3ccc(F)cc3)c(N)n2)cc1
  x | 1.4% | i
O=C(OC(C(=O)NCC1CCCO1)c1ccccn1)c1cccs1 (centres undefined)
  -1.2 | 3.8% | i
CC1CN(Cc2nc3c(c(=O)n(C)c(=O)n3C)n2Cc2ccccc2)CC(C)O1 (centres undefined)
  0.95 | 1.9% | i
O=C(NCc1ccccn1)c1ccc(Br)s1
  0.05 | -0.7% | i
CCOC(=O)N1CCN(c2cc(=O)n(-c3ccccc3Cl)c(=O)[nH]2)CC1
  0.94 | 4.3% | i
CC(=O)Nc1cccc(-c2nnc(SCC(=O)n3c4c(c5ccccc53)CCCC4)n2C)c1
  x | 1.3% | i
COC(=O)c1c(-c2cccc(C)c2)csc1N
  -0.38 | -5.3% | i
CCC1(C)Cc2nc3sc(C(=O)O)c(N)c3cc2CO1 (centres undefined)
  -0.61 | -14% | i
CCOCCCN1C(=O)C(O)=C(C(C)=O)C1c1cccs1 (centres undefined)
  x | -3.2% | i
CCn1c(SCC(=O)C(C)(C)C)nnc1-c1ccccc1OC
  1.9 | -2.2% | i
CC1SC(=NC(=O)C(C)N2C(=O)c3ccccc3C2=O)NC1=O (centres undefined)
  x | -2.5% | i
COc1cc(S(=O)(=O)N2CCOCC2)ccc1NC(=O)COC(=O)c1ccccn1
  0.01 | -6.3% | i
Cc1cc(C(=O)COc2cccc3cccnc23)c(C)n1C
  -0.69 | 4.7% | i
CCC(=O)Nc1ccc(-c2nnc(SCC(=O)N3CCCCC3)n2C)cc1
  x | -0.2% | i
O=C(Nc1ccc2c(c1)OCO2)c1cnn2c1NC(c1ccco1)CC2C(F)(F)F (centres undefined)
  0.48 | -2.0% | i
N#Cc1ccccc1Cn1c(=O)n(CCCC(=O)NCc2ccc3c(c2)OCO3)c(=O)c2ccccc21
  1.6 | 1.1% | i
Cc1ccc(-c2nnn(CC(=O)N(Cc3cccs3)C(C(=O)NC3CCCCC3)c3ccco3)n2)o1 (centres undefined)
  x | 9.0% | i
COc1ccc(N(Cc2cc3ccc(C)cc3[nH]c2=O)C(C)=O)cc1
  0.02 | -5.4% | i
O=C(CCC1N=C2c3ccccc3N=C(SCc3ccc(Cl)cc3)N2C1=O)NCc1ccco1 (centres undefined)
  0.97 | -1.6% | i
Cc1ccc2cccc(NC(=O)c3ccc(Br)o3)c2n1
  -1.3 | -7.7% | i
COc1ccc(Nc2nc(C(C)(C)C)nc3c2nnn3Cc2ccccc2Cl)cc1OC
  x | 3.4% | i
COC(=O)C1=C(C)N(c2ccc(Cl)c(Cl)c2)C(=O)C1
  -0.79 | 6.6% | i
CC(C)c1nnc(NC(=O)CSc2ncn[nH]2)s1
  1.8 | -1.6% | i
COc1ccccc1-c1nn2c(-c3ccc(C(C)(C)C)cc3)nnc2s1
  0.61 | -28% | i
Cc1ccc(NCc2ccccc2O)cc1
  x | -1.3% | i
O=S(=O)(c1ccc(Oc2ccc(Br)cc2)cc1)N1CCOCC1
  -0.25 | -3.8% | i
Cc1ccc(-c2cn3cccnc3n2)cc1NC(=O)c1c(-c2ccccc2Cl)noc1C
  1.1 | -11% | i
CCCCOC(=O)C1C2C=C[C@]3(CN(CCCOC)C(=O)[C@H]13)O2 (some centres undefined)
  -1.8 | -1.9% | i
Cn1c(SCC(=O)N2CCCC2)nnc1-c1ccc(S(=O)(=O)N2CCCC2)cc1
  x | 6.0% | i
CCOC(=O)C1CCN(CC(O)COc2ccc(C(C)(C)C)cc2)CC1 (centres undefined)
  -2.4 | 2.3% | i
CCOC(=O)N1CCN(C(=O)CCSc2ccc(C)cc2)CC1
  0.3 | 2.9% | i
O=C(CCNS(=O)(=O)c1ccc(Cl)cc1)NCc1cccnc1
  2.1 | -2.3% | i

Part of the list above, in markdown.
| Compound | WNV protease inh | Hsc70 ATP site | MT1-MMP promoter |
| --- | --- | --- | --- |
| CCOC(=O)C1CCN(CC(O)COc2ccc(C(C)(C)C)cc2)CC1 (centres undefined) | -2.4 | 2.3% | i |
| Cc1ccc(NCc2ccccc2O)cc1 | x | -1.3% | i |
| O=S(=O)(c1ccc(Oc2ccc(Br)cc2)cc1)N1CCOCC1 | -0.25 | -3.8% | i |
| O=C(CCC1N=C2c3ccccc3N=C(SCc3ccc(Cl)cc3)N2C1=O)NCc1ccco1 (centres undefined) | 0.97 | -1.6% | i |
| CC(C)c1nnc(NC(=O)CSc2ncn[nH]2)s1 | 1.8 | -1.6% | i |

Gathered by group: the entries above with a cyano group (two)
Every second line gives: WNV protease inh | Hsc70 ATP site | MT1-MMP promoter
C=CCOC(=O)C(C#N)c1nc2ccccc2nc1N1CCCC1 (centres undefined)
  2 | 52% | i
N#Cc1ccccc1Cn1c(=O)n(CCCC(=O)NCc2ccc3c(c2)OCO3)c(=O)c2ccccc21
  1.6 | 1.1% | i

Further results.
Every second line gives: WNV protease inh | Hsc70 ATP site | MT1-MMP promoter
Cn1c(SCc2ccccn2)nnc1-c1cnccn1
  -0.45 | -7.2% | i
CC1CCCCN1C(=O)CSc1nc(-c2ccccc2)cc(=O)[nH]1 (centres undefined)
  1.6 | -0.1% | i
CCN(CC)S(=O)(=O)c1ccc(S(=O)(=O)N2CCN(C(=O)c3ccco3)CC2)cc1
  x | -4.7% | i
CCN(CC)CCCN1C(=O)C(O)=C(C(=O)c2ccco2)C1c1ccc(OC(C)C)cc1 (centres undefined)
  -0.38 | -4.5% | i
CCOC(=O)C1(c2nc(N)cs2)COC(=O)C1 (centres undefined)
  0.26 | -3.6% | i
COC(=O)c1ccc(NC(=O)CN2CCN(c3cccc(Cl)c3)CC2)cc1
  -0.53 | -1.0% | i
Cc1cc(C)nc(N2CCC(C(=O)NCc3cccs3)CC2)n1
  2.8 | 2.8% | i
O=C(c1cc(S(=O)(=O)N2CCOCC2)c(Cl)cc1Cl)N1CCCCC1
  -1 | 0.0% | i
CCc1nn(C(C)C(=O)NCCc2ccc(OC)c(OC)c2)c(=O)c2cc3occc3n12 (centres undefined)
  -0.17 | -1.1% | i
CSc1nnc(Cc2cc(=O)[nH]c(=O)[nH]2)n1-c1cc(C)ccc1C
  -0.9 | 2.5% | i
CC1Cc2ccccc2N1C(=O)CSc1nc2c(c(=O)n(C)c(=O)n2C)n1Cc1ccccc1 (centres undefined)
  1.4 | 3.1% | i
c1ccc2c(Cn3nnc4ccccc43)cccc2c1
  -0.16 | -13% | i
CCOC(=O)CNC(=O)CSc1nnc(-c2ccccc2)n1Cc1ccco1
  -0.18 | -9.2% | i
CCC(Cc1ccccc1)NC(=O)C1CCN(S(=O)(=O)c2c(C)noc2C)CC1 (centres undefined)
  x | 3.4% | i
CCOC(=O)CN(C(=O)c1ccccc1)c1ccccc1C
  -0.3 | 4.2% | i
c1ccc2c(c1)oc1c(NCCCn3ccnc3)ncnc12
  0.76 | -0.7% | i
CCOC(=O)Cc1c(C)nc2c(-c3ccccc3OC)c(C)nn2c1C
  x | 1.7% | i
O=C(c1cn(-c2ccccc2)nc1-c1ccncc1)n1nnc2ccccc21
  -0.82 | -0.2% | i
CCN1c2ccccc2-c2nc3ccccc3n2C1c1ccncc1 (centres undefined)
  -1.1 | 6.9% | i
CCn1cc(C2=NC(C)CO2)c2ccccc21 (centres undefined)
  x | 2.6% | i
CCOC(=O)C1CCCN(C(=O)c2cn(CC(C)C)c(=O)c3cc(OC)c(OC)cc23)C1 (centres undefined)
  x | 1.4% | i
NC(CSC12CC3CC(CC(C3)C1)C2)C(=O)O (centres undefined)
  -0.09 | -1.0% | i
COCCNC(=O)Cn1cc2c(n1)CCCCC2
  0.03 | 8.7% | i
CC1=C/C(=C/N(C)c2ccccc2)C(=O)S1
  0.51 | 11% | i
COc1ccc(S(=O)(=O)Cc2ccc(C(=O)N3CCN(c4cccc(C)c4)C(C)C3)o2)cc1 (centres undefined)
  0.55 | -2.3% | +
CSc1cccc(NC(=O)C(C)NS(=O)(=O)c2ccc(F)cc2)c1 (centres undefined)
  x | 1.5% | i
O=S(=O)(/C=C/c1ccccc1)Nc1ccc2c(c1)OCO2
  -0.14 | 6.0% | i
CCCn1c(SCC(=O)NC(=O)Nc2ccc(C)cc2C)n[nH]c1=O
  1.5 | -2.9% | i
CCOC(=O)c1ccc(NC(=O)Nc2ccc(OC)c(OC)c2)cc1
  -0.66 | 3.9% | i
O=S(=O)(/N=C(/Sc1ccccc1)c1ccccc1)c1ccccc1
  x | 0.1% | i
CCC(=O)Nc1ccc2oc(-c3cccc(C)c3)nc2c1
  0.97 | -0.2% | +
COC(=O)c1ccc(CS(=O)(=O)c2ccc(C)cc2)cc1
  x | -4.3% | i
O=C(NCC1CCCO1)C1CCC(N2C(=O)c3ccccc3C2=O)CC1 (centres undefined)
  1.8 | 2.0% | i
CC1(C)CC(C)(c2ccc(O)cc2O)N(c2cccc(Cl)c2)C(=S)N1 (centres undefined)
  x | -2.4% | i
CCOC(=O)N1CCC(NC(=O)CCc2nc(-c3ccccc3F)no2)CC1
  -0.28 | -3.0% | i
CCOC(=O)c1sc(NC(=O)CSc2nnc(C)s2)c(C(=O)OCC)c1C
  1.5 | -10% | i
CC(C)CCNC(=O)C(c1ccco1)N(Cc1ccccc1)C(=O)c1snc(C(N)=O)c1N (centres undefined)
  -0.22 | 2.8% | i
O=C(C1CC1)N1CCN=C1SCc1ccc(F)cc1
  -0.22 | -1.0% | i
Cc1nnc(N2C(=O)c3oc4ccccc4c(=O)c3C2c2ccco2)s1 (centres undefined)
  0.26 | 5.8% | i
Cn1c(SCC(N)=O)nnc1C1CCN(S(=O)(=O)c2ccccc2C(F)(F)F)CC1
  -0.19 | -1.1% | i
COc1ccc(OCC(=O)Nc2cccc3ncccc23)cc1
  1.1 | 2.0% | i
O=[N+]1C2=C(CCCC2)N([O-])C12CCCC2
  -0.26 | 9.0% | i
C/C=C/c1ccc(OCCCCn2cncn2)c(OC)c1
  0.85 | -4.3% | i
CCC(Sc1nnnn1C)C(=O)Nc1ccc(C(C)=O)cc1 (centres undefined)
  -1 | 1.8% | i
COC(=O)C(Cc1ccc(O)cc1)NC(=O)c1ccccc1OC (centres undefined)
  -0.89 | -1.8% | i
CCCN1CCN(C(=O)Cn2cccc2C(=O)c2ccccc2)CC1
  0.06 | -1.0% | i
COC(=O)c1ccc(CSc2nncn2C)cc1
  1.2 | 1.3% | i
CCOc1ccc(NC(=O)c2ccc(OC)cc2)cc1
  x | 4.1% | i
COC(=O)c1ccc(NC(=O)CCN2CCN(c3ccccc3)CC2)cc1
  0.28 | -0.1% | i
C=CCSc1nnc(NC(=O)CSc2nc(CCC)cc(=O)[nH]2)s1
  0.82 | 0.3% | i
COC(=O)C(C)N(C(=O)c1ccc(Cl)cc1)c1c(C)cccc1C (centres undefined)
  x | 3.5% | i
COCCCNC(=O)c1ccc(CNS(=O)(=O)c2ccc(NC(C)=O)cc2)cc1
  -1.9 | -0.9% | i
c1ccc(-c2onc3cc4c(cc23)OCCO4)cc1
  -0.16 | -3.1% | i
COC(=O)c1ccccc1N(Cc1ccccc1)S(C)(=O)=O
  -0.0031 | -7.8% | i
COc1cccc(/C=N/Nc2nc(N3CCCC3)nc(N3CCCC3)n2)c1O
  x | 2.7% | i
NS(=O)(=O)c1ccc(CNC(=O)C2CCCCC2)cc1
  0.79 | 7.3% | i
Nc1c(S(=O)(=O)c2cccs2)c2nc3ccccc3nc2n1Cc1ccc2c(c1)OCO2
  1.9 | -2.1% | i
CC1=C(C)[N+](=O)C2CCCCC2N1[O-] (centres undefined)
  0.11 | -1.3% | i
C[C@@H]1C[C@H]2[C@@H]3CCC4=CC(=O)C=C[C@]4(C)[C@@]3(F)[C@@H](O)C[C@]2(C)[C@H]1C(=O)CO
  0.13 | 1.0% | i
CCNc1cc2n(c(=O)n1)CCc1cc(OC)c(OC)cc1-2
  0.99 | -0.2% | i

The list goes on.
Every second line gives: WNV protease inh | Hsc70 ATP site | MT1-MMP promoter
O=S(=O)(NCc1ccccn1)c1ccccc1
  x | 1.2% | i
CC(=O)C1=C(C)NC(=O)NC1c1cc(Br)ccc1OCC(N)=O (centres undefined)
  -0.3 | -13% | i
COc1ccc2nc(N3CCCC(O)C3)c(C#N)cc2c1 (centres undefined)
  -0.05 | 8.9% | i
O=C(COc1ccc(F)cc1)Nc1nnc(-c2ccncc2)s1
  x | -1.5% | i

Bioassay records from PubChem.
